Screens as filed in PubChem BioAssay.
GALR2 agonist: GALR2 receptor agonists, primary screen, cell-based. activation, %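 (tested at 5 µM)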. 0.48% of 140,000 active. GALR2-expressing cells, agonist activation read-out;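 active = above mean plus 3 SD of all compounds, about 5% in these data, not always enough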;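 note: 0% = vehicle buffer wells and 100% = reference agonist at full effect; tested in CHO reporter cells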
Target sequence (O43603 whole entry, looked up): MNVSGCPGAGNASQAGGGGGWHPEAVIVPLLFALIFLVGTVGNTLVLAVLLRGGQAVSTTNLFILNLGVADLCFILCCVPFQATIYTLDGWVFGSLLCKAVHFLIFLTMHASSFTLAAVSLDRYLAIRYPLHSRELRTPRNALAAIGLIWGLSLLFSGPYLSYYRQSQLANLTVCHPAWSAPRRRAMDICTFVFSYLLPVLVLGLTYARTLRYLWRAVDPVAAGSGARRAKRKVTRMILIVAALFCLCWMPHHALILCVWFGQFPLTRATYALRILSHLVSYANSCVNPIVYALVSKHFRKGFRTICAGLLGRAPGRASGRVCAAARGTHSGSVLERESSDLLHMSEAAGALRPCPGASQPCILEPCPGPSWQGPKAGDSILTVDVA
INS promoter inh: inhibitors of insulin promoter-driven GFP, primary screen, imaging, TRM-6 cells (human fetal islet line), eGFP reporter, cell count; reporter expression induced with tamoxifen; inhibition, % at 2 µM; 0.9% of 130,000 active; AID 1273, 2008;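 active = inhibition above the mean plus 3 SD, with well images judged a real hit on visual review, cut at about 60% in these data, passing the limit was not always enough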
HSV replic up: enhancers of HSV replication in host cells, fold increase, host cell viability; HSV replication augmentation in cells; maximum fold increase; 0.005% of 220,000 active; AID 1956, 2009;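 active = peak rise of 1.5-fold or more in the series; tested in PC3 cells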;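 note: first round at 10 µM; read as green reporter fluorescence; hits show the peak of a series up to 25 µM; 1 = signal of infected wells without compound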
RGS16-Gao: modulators of RGS16 binding to Galphao, primary screen, biochemical, human proteins, multiplexed bead flow cytometry. bead-based flow cytometry RGS16-Galphao binding, fluorescence; actives lie on both sides. binding response (% of control), % at 10 µM. 0.38% of 220,000 active. AID 1441, 2008;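 active = below 25% or above 175%, edge rows of some plates excepted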;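 note: Galphao activated by GDP with aluminum fluoride before binding; 100% = wells without compound and 0% = beads without RGS; some results beyond the cut were filed as inactive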
Target sequence (O15492 whole entry, looked up): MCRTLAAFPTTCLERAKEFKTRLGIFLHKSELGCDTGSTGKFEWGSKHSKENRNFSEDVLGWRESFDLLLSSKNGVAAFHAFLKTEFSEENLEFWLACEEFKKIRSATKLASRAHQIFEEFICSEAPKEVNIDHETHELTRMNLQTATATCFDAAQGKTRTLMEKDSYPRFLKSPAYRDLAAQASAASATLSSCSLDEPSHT
Target sequence (P09471 whole entry, looked up): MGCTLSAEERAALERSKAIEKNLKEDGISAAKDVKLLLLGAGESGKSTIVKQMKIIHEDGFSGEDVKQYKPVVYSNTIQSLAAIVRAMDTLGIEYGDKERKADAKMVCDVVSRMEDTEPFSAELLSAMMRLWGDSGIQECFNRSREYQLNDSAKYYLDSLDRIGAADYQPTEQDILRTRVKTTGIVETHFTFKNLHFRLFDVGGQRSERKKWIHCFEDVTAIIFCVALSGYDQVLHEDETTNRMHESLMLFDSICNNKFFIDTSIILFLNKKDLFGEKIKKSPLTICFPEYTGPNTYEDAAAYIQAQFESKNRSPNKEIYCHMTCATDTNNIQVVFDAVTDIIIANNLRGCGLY
PKD1 kinase inh: inhibitors of human PKD1 kinase, biochemical, fluorescence polarization. Serine/threonine-protein kinase D1 (Homo sapiens), Q15139. PKD1 kinase fluorescence polarization assay. inhibition, %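 (about 10 µM by stock and volumes)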. 0.056% of 200,000 active. AID 797, 2007;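 active = inhibition of 50% or more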;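 note: controls were vehicle for no effect and a reference inhibitor for full effect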
INS promoter inh cell count: also measured in INS promoter inh; calls as there; normalized cell count, %; measured here: cell count, toxicity; reference of the scale not given here;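 cells exposed to compound for 48 h; stained nuclei by imaging scaled within each plate; lower means fewer cells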
HSV replic up primary fold: recorded beside HSV replic up, whose call it bears; fold increase; compound at 10 µM; measured here: primary screen fold increase 10 uM; tested in PC3 cells;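 GFP signal in the first replicate; 1 = infected wells without compound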
The depositor's hits bear a star; i = inactive; . = no result given.

molecule | GALR2 agonist | INS promoter inh | INS promoter inh cell count | HSV replic up | HSV replic up primary fold | RGS16-Gao | PKD1 kinase inh
Cc1ccc(NC(=O)C(=O)NN=C2CCCC2)cc1C | . | . | . | i | 0.98 | 105 | -8
COc1ccccc1-c1nc2n(n1)C(c1ccc(Cl)cc1)C(C(N)=O)=C(C)N2 (configuration not stated) | -5.2 | 42 | 145 | i | 0.89 | 101 | -2
Cc1ccc(NC(=O)CSc2ncnc3ccccc23)cc1S(=O)(=O)N1CCCCC1 | -0.2 | -8 | 88 | i | 0.85 | 103 | 7
O=C(NN(CC(O)COc1ccccc1)CC(O)COc1ccccc1)c1ccccc1 (configuration not stated) | . | . | . | i | 0.92 | 91 | .
CCCCC(=O)Nc1cccc(NC(=O)CC)c1 | -5.8 | 20 | 102 | i | 0.77 | 103 | 8
N#CCC(=O)N1CCN(C=O)CC1 | . | -5 | 198 | i | 0.78 | 109 | -3
COC/C=C/C1=CC2=CC(=O)C(C)(OC(=O)c3ccco3)C(=O)C2=CO1 (configuration not stated) | . | . | . | i | 1 | 92 | .
CCCc1cc(N2CCCC(C(=O)Nc3c(OC)cccc3OC)C2)n2ncnc2n1 (configuration not stated) | 0.2 | 30 | 117 | i | 0.84 | 104 | -3
COc1cccc(C(c2sc3nc(C)nn3c2O)N2CCc3ccccc3C2)c1 (configuration not stated) | -1.8 | 20 | 168 | i | 0.85 | 111 | 3
COc1ccc(/C=C/C(=O)NNc2c(F)c(F)cc(F)c2F)cc1OC | -2.5 | -3 | 115 | i | 0.98 | 102 | 1
CCCCN1C(=O)C(=O)NC[C@@H]1C(C)CC (some centres not stated) | . | . | . | i | 1 | 110 | .
N/N=C1\CCCc2c1[nH]c1ccc([N+](=O)[O-])cc21 | . | . | . | i | 1.1 | 100 | .
c1ccc2c(CSc3ncnc4nc[nH]c34)cccc2c1 | . | 56 | 69 | i | 0.93 | 100 | 1
O=c1n(-c2ccccc2)c(=O)n2n1CCCC2 | -1.8 | 21 | 168 | i | 0.93 | 82 | -1
c1ccc(C(c2ccccc2)c2noc(CN3CCN(CC4CC4)CC3)n2)cc1 | . | . | . | i | 1 | 107 | 8
Fc1ccc2nc(C3CCCCN3Cc3nc(CC4CC4)no3)[nH]c2c1 (configuration not stated) | . | . | . | i | 1.2 | 101 | -10
CCc1ccc(NC(=O)CN2CCc3ccccc3C2)cc1 | -2.8 | 67 | 101 | i | 0.82 | 100 | 0
COc1ccc(CCNC(=O)CSc2nnc3ccc(-c4cccnc4)nn23)cc1OC | . | 33 | 120 | i | 0.9 | 104 | -6
O=C(CN1CCCCC1)N/N=C/c1cc2ccccc2nc1Cl | . | 44 | 104 | i | 0.81 | 100 | -2
Cc1cccc(/C=N/NC(=O)c2cc(-c3cccnc3)nc3ccccc23)c1 | . | . | . | i | 0.98 | 99 | -5
COC(=O)c1ccc(CSc2nc3ccccc3c(=O)n2-c2ccccc2)o1 | 4.1 | 19 | 93 | i | 1 | 102 | -9
CCN(CC)C(=O)CSc1nnc(-c2cc3ccccc3cc2O)n1CC | -1.4 | 0 | 60 | i | 0.94 | 99 | 3
CCOc1ccc(OCc2ccc(C(=O)NCC3CCCO3)o2)cc1 (configuration not stated) | 0.7 | -3 | 131 | i | 1.1 | 101 | -1
CCC(=O)NC(=S)Nc1ccc(NC(=O)COc2ccc(Cl)cc2Cl)cc1 | 1.0 | -4 | 143 | i | 1 | 101 | 8
C=CCC1(C#N)C(SC)=NC2=C(C(=O)CC(C)(C)C2)C1c1ccc(Br)cc1 (configuration not stated) | -0.4 | . | . | i | 1.1 | 100 | 5
COc1ccccc1N(Cc1ccccc1)S(=O)(=O)c1cccc(C(=O)Nc2ccc(C(C)=O)cc2)c1 | -0.4 | 26 | 87 | i | 0.85 | 96 | -6
CCCc1nc(SCC(=O)Nc2ccccc2)c2c(=O)n(C)c(=O)n(C)c2n1 | -1.2 | . | . | i | 0.8 | 102 | 8
CCCCCCCCCCOC(=O)C[N+](C)(C)CC1CCCCC1O (configuration not stated) | . | -33 | 70 | i | 0.94 | 103 | -4
Cc1cc(N/N=C/c2cccc(Br)c2)nc2ccccc12 | -1.1 | -11 | 123 | i | 0.89 | 104 | -2
COc1ccc(-c2nc(N)n[nH]2)cc1OC | -1.2 | -32 | 87 | i | 0.89 | 113 | -16
COc1ccc(CC2(CO)CCN(Cc3ccc(NC(C)=O)cc3)CC2)cc1 | . | . | . | i | 0.74 | 94 | -8
CC1(C(=O)O)CCC(C(=O)Nc2ccc(S(N)(=O)=O)cc2)C1(C)C (configuration not stated) | -1.2 | . | . | i | 0.9 | 129 | -19
COC(=O)CSc1nc(C2CC2)cc(C(F)(F)F)c1C#N | -0.2 | 15 | 203 | i | 0.95 | 102 | -10
Cc1ccc(Cl)cc1N1CCN(CC(O)COC(C)C)CC1 (configuration not stated) | . | . | . | i | 0.98 | 93 | .
Cc1ccccc1C(=O)Oc1ccc(-c2csnn2)cc1 | . | . | . | i | 1 | 101 | .
CCCC(C)NC(=O)COc1ccc(S(=O)(=O)c2ccc(OCC(=O)NC(C)CCC)cc2)cc1 (configuration not stated) | 0.2 | -43 | 142 | i | 1.1 | 99 | -1
O=C(c1ccc2c(c1)C(=O)N(CCCO)C2=O)c1ccc2c(c1)C(=O)N(CCCO)C2=O | 0.3 | . | . | i | 0.9 | 99 | -6
COc1ccccc1N1CCN(C(=O)c2ccc(C(C)(C)C)cc2)CC1 | -2.0 | 33 | 119 | i | 0.61 | 102 | -5
Cc1ccc(S(=O)(=O)N2CCOCC2)cc1C(=O)NCc1cccs1 | . | . | . | i | 0.94 | 96 | 2
COC(=O)c1nc(NC(=O)c2ccc(Br)cc2)n[nH]1 | -1.5 | -20 | 161 | i | 0.77 | 97 | -4
O=C(N1CCCCC1)C12CC3CC(C1)CC(C(=O)N1CCCCC1)(C3)C2 | -2.3 | 0 | 107 | i | 0.97 | 105 | -3
CCN(CC)CCOC(=O)c1ccc([N+](=O)[O-])cc1 | . | . | . | i | 0.94 | 96 | .
COc1ccc(C2/C=C\CN(S(=O)(=O)/C=C/c3ccccc3)[C@H](Cc3ccccc3)C(=O)N2Cc2ccc(F)cc2)cc1 (some centres not stated) | . | . | . | i | 0.9 | 102 | .
C/C(=N\NC(=O)C(N)=O)c1cccc(C(F)(F)F)c1 | . | . | . | i | 0.82 | 104 | -2
COc1ccccc1N1CCN(C(c2cccs2)C(C)NC(=O)c2cccnc2)CC1 (configuration not stated) | . | -36 | 222 | i | 1.1 | 107 | -2
O=C(NCC1CCCO1)c1ccc2c(=O)n(Cc3ccco3)c(SCC(=O)N3CCCC3)nc2c1 (configuration not stated) | -0.9 | 47 | 121 | i | 1.1 | 98 | -11
CC(C)(C)N1CC(C(=O)O)CC1=O (configuration not stated) | . | . | . | i | 1 | 104 | 1
CCCCC(=O)NC(Nc1nc(C2CC2)cs1)(C(=O)OCC)C(F)(F)F (configuration not stated) | -1.2 | -100 | 82 | i | 1 | 92 | -6
CCOc1ccc(S(=O)(=O)Nc2ccc(Cl)cn2)c(C)c1C | -1.4 | -17 | 115 | i | 1 | 78 | 4
CC(C)C(OC(=O)c1ccco1)C(=O)NCc1ccco1 (configuration not stated) | -0.9 | . | . | i | 1 | 99 | -5
CCC(C)N=CC1=C(O)C(C(=O)OC)C(C)(C)CC1=O (configuration not stated) | 49* | . | . | i | 0.94 | 96 | -11
CCCCCCOC(=O)NCC(O)c1ccccc1 (configuration not stated) | -3.3 | . | . | i | 0.96 | 103 | -4
CC(=O)c1cccc(NC(=O)N2CCCC2C(=O)NCCc2ccccc2)c1 (configuration not stated) | -2.0 | 82* | 28* | i | 0.95 | 101 | 2
N#CC(=C=[N-])c1nc2ccccc2nc1-[n+]1cccc(NC(=O)c2ccc(F)cc2)c1 | . | . | . | i | 1 | 100 | .
CCOC(=O)C1=C(C)N(c2ccc(Cl)cc2)C(=O)NC1c1cccc([N+](=O)[O-])c1 (configuration not stated) | -1.1 | 47 | 107 | i | 0.82 | 102 | -8
CCN1CCN(Cc2ccc(NC(=O)Nc3ccccc3)cc2)CC1 | -1.4 | . | . | i | 1 | 146 | -17
O=C(/C=C/c1ccco1)Nc1ccc(N2CCCC2)cc1 | -2.1 | . | . | i | 0.73 | 33 | -4
COc1ccc(CCNS(=O)(=O)c2ccccc2)cc1OC | -1.9 | -30 | 69 | i | 1 | 87 | 4
Cn1c(=O)c2c(ncn2CC(=O)NCc2cccnc2)n(C)c1=O | -0.7 | 17 | 95 | i | 0.94 | 102 | 1
Fc1cc(F)c(F)c(SCCc2ccncc2)c1F | -1.6 | -4 | 105 | i | 0.8 | 94 | -5

Profiles, quoted from the list.
CC(C)(C)N1CC(C(=O)O)CC1=O (configuration not stated) in the list: GALR2 agonist: .; INS promoter inh: .; INS promoter inh cell count: .; HSV replic up: i; HSV replic up primary fold: 1; RGS16-Gao: 104; PKD1 kinase inh: 1
CCOc1ccc(S(=O)(=O)Nc2ccc(Cl)cn2)c(C)c1C in the list: GALR2 agonist: -1.4; INS promoter inh: -17; INS promoter inh cell count: 115; HSV replic up: i; HSV replic up primary fold: 1; RGS16-Gao: 78; PKD1 kinase inh: 4
CCOC(=O)C1=C(C)N(c2ccc(Cl)cc2)C(=O)NC1c1cccc([N+](=O)[O-])c1 (configuration not stated) in the list: GALR2 agonist: -1.1; INS promoter inh: 47; INS promoter inh cell count: 107; HSV replic up: i; HSV replic up primary fold: 0.82; RGS16-Gao: 102; PKD1 kinase inh: -8

Other compounds:
molecule | GALR2 agonist | INS promoter inh | INS promoter inh cell count | HSV replic up | HSV replic up primary fold | RGS16-Gao | PKD1 kinase inh
Cn1c(=O)c2c(ncn2CC(=O)OCc2ccccc2)n(C)c1=O | -2.5 | . | . | i | 1 | 102 | -2
CNC(=O)c1cccc(N2CCCC2=O)c1 | -1.0 | -11 | 85 | i | 0.98 | 115 | -3
CC(NC(=O)Cn1nc(C(F)(F)F)c2c1CCC2)c1ccccc1 (configuration not stated) | -3.1 | 71 | 111 | i | 1 | 99 | 2
O=C(c1cc(-c2ccccc2O)on1)N1CCCC1 | -1.3 | . | . | i | 0.85 | 98 | -9
CCC(=O)N1CCN(c2cc(NCC3CCCO3)c(F)cc2[N+](=O)[O-])CC1 (configuration not stated) | . | . | . | i | 0.88 | 103 | 8
Cc1onc(-c2ccccc2)c1C(=O)NCc1ccccn1 | -3.4 | -29 | 125 | i | 1.1 | 101 | -5
CCn1nnc(-c2ccccc2NC(=O)c2cc(OC)cc(OC)c2)n1 | -0.3 | . | . | i | 1 | 99 | -14
O=C(CSc1nc2ccccc2c(=O)[nH]1)Nc1ccccc1N1CCOCC1 | . | -71 | 103 | i | 0.99 | 101 | 5
Cc1[nH]c2ccccc2c1C(O)CN1CCN(c2cccc(C(F)(F)F)c2)CC1 (configuration not stated) | -1.2 | . | . | i | 0.79 | 99 | -18
O=C(Cc1c(F)cccc1Cl)Nc1ccc(-n2cnnn2)cc1 | . | 64 | 127 | i | 0.86 | 95 | -7
COc1cc(NC(=O)C2CCCO2)c(C(=O)O)cc1OC (configuration not stated) | -0.9 | -132 | 121 | i | 0.94 | 101 | -6
CCOc1ccccc1CNCCO | -0.9 | -19 | 168 | i | 0.9 | 102 | -7
C=CCN(CC=C)C(=O)CCc1nnc(CCc2c[nH]c3ccccc23)o1 | . | . | . | i | 0.98 | 106 | -5
O=C(NC1CCN(Cc2ccccc2)CC1)C1CCN(c2nnc(-n3cccc3)s2)CC1 | -3.3 | . | . | i | 1.1 | 103 | -9
O=C(Nc1cccc(C(F)(F)F)c1)C(Sc1cccc[n+]1[O-])c1ccccc1 (configuration not stated) | -0.8 | . | . | i | 0.79 | 109 | 0
CC/C(C)=N/Nc1cccc([N+](=O)[O-])c1 | -0.5 | . | . | i | 1 | 92 | -10
O=C(COC(=O)Cc1ccc(Cl)cc1Cl)NCCC1=CCCCC1 | -0.2 | 19 | 123 | i | 1 | 58 | -7
O=C1CN(C(=O)COc2ccccc2)CCN1 | -1.9 | . | . | i | 0.92 | 106 | -3
CC(c1cccnc1)N(CCN(C)C)C(=O)Nc1ccc(Cl)c(Cl)c1 (configuration not stated) | -3.1 | . | . | i | 0.94 | . | -15
O=[N+]([O-])c1cccc(S(=O)(=O)NCC2CCCO2)c1 (configuration not stated) | -0.4 | 30 | 75 | i | 1 | 6 | 10
COc1ccccc1NC(=O)c1ccc(COc2ccccc2OC)o1 | 0.6 | -33 | 109 | i | 0.98 | 91 | -6
Cc1cccc(CC2S/C(=N/c3cccc(C)n3)NC2=O)c1 (configuration not stated) | . | . | . | i | 0.97 | 102 | .
CCOC(=O)C(C(=O)NCC1CCCO1)C1CCCCC1 (configuration not stated) | -1.2 | -146 | 90 | i | 0.89 | 104 | 5
